High-throughput results from PubChem BioAssay.
TRPML1 agonist = qHTS for Agonists of the Human Mucolipin Transient Receptor Potential 1 (TRPML1); Mucolipin-1 (Homo sapiens), Q9GZU1; AID 624414, 2012; activation, % (test concentration not listed); TRPML1-expressing cells, Ca2+ dye fluorescence, FDSS; host cell line not named in the record; reference of the full effect not given here; 410,000 compounds, 0.12% hits; in the data active = activation above about 50%; inconclusive = about 30% to 50%; inactive = below about 30%; note: 0% is about no effect; the text of the record puts the active cut at 80%
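Cells: TRPML1-DL, 1X Tet inducer, ~16 h at 37 degrees C/5% CO2. Dye: ABD Ca8 no-wash + quencher, 45-90 min RT. Read: 10 s baseline, compound add, 110 s agonist phase; 54-4 EC80 (4uM final), 110 s antagonist phase.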
D2 ag = Beta-Arrestin HTS for Positive Allosteric Modulators of the Human D2 Dopamine Receptor: Agonists | DiscoveRx PathHunter D2 beta-arrestin, luminescence, 90 min; 100% = 57 uM dopamine signal | D(2) dopamine receptor (Homo sapiens), P14416 | 360,000 compounds, 0.084% hits | AID 624465, 2012 | activation, % (no concentration beside the values); in the data active = activation above about 40%; inconclusive = about 15% to 40%; inactive = below about 15%; note: compound concentration not given in the record; the text of the record calls up to 30% inactive
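DiscoveRx PathHunter D2 beta-arrestin cells (2,100/well) attached overnight, then compound-stimulated 90 min at 37 C in HBSS/10 mM HEPES/0.1% Tween-20 buffer; beta-galactosidase complementation read by luminescence after 1 h at ambient temperature. Dopamine 57 uM final (EC100) as control.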
D2 potentiator = Beta-Arrestin HTS for Positive Allosteric Modulators of the Human D2 Dopamine Receptor: Potentiators. DiscoveRx D2 beta-arrestin cells, luminescence, 90 min; 100% = 57 uM dopamine signal. potentiation, % (no concentration beside the values). 360,000 compounds, 0.23% hits; active = potentiation of 50% or more; inconclusive = 30% to 50%; inactive = 30% or less;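 note: compound concentration not given in the record; tested on top of an EC20 dose of dopamine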
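D2 cells co-treated with compound plus 50 nM dopamine (EC20) for 90 min at 37 deg C to detect potentiation. Beta-arrestin recruitment was read as enzyme-fragment luminescence after 1 h at ambient temperature. Full response was set by 57 uM dopamine.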
TRPML1 inh = qHTS for Inhibitors of the Human Mucolipin Transient Receptor Potential 1 (TRPML1); 390,000 compounds, 0.02% hits; activity change, negative = inhibition, % (no concentration beside the values); TRPML1-inducible cells, Ca2+ dye fluorescence, FDSS; hits give low values; inhibition of EC80 agonist-evoked calcium signal; AID 624415, 2012; in the data active means activity change below about -50%; inconclusive means about -30% to -50%; inactive means above about -30%;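 note: stimulus is agonist 54-4 at its EC80 concentration; % is set by controls: 0 for no effect and ±100 for the full control effect; compound concentration not given in the record; the text of the record puts the active cut at -80%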
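TRPML1-DL cells, Tet-induced overnight (~16 h, 37 °C) at 1,500 cells/well, were loaded with Ca8 no-wash dye plus quencher for 45-90 min at room temperature. Compounds were pinned during FDSS kinetic reading; agonist 54-4 at EC80 (4 uM final) then added.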
PINK1 modulator = A Quantitative High throughput Screen to Identify Chemical Modulators of PINK1 Expression. PINK1 immunofluorescence, high-content cytometry, 24 h. 410,000 compounds, 0.2% hits. Potency, µM (titrated, usually from 76.6 µM), for the others: top-dose activation (PINK1 increase), usual class: activators; active = well fitted activation curve with a large enough effect; inconclusive = small, poorly fitted or top-dose-only effect; inactive = flat fitted curve, though single readings scatter; cell line not stated here;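 note: potency is the fitted concentration of half-maximal effect; % of control where 0% means no effect; nearly all actives have a fitted effect of over 65% in size; a mitochondrial uncoupler was the plate control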
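Fluorescence from anti-PINK1 antibody, together with nuclear and cell stains, was scanned on a laser-scanning cytometer. Before staining, stable-line cells were incubated 24 hours with compounds at 5 concentrations; primary antibody 12 h at 10 degrees C.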
Six1-Eya2 inh = qHTS Assay for Inhibitors of the Six1/Eya2 Interaction; AID 651725, 2012; 360,000 compounds, 0.56% hits; AlphaScreen GST-Six1/His-Eya2 binding, biochemical; hits give low values; control for the full effect not named in the record; activity change, % (concentration not given with the values); in the data active = activity change below about -65%; inconclusive = about -30% to -65%; inactive = above about -30%; note: % is set by controls: 0 for no effect and ±100 for the full control effect
Target sequence (O00167 whole entry, looked up): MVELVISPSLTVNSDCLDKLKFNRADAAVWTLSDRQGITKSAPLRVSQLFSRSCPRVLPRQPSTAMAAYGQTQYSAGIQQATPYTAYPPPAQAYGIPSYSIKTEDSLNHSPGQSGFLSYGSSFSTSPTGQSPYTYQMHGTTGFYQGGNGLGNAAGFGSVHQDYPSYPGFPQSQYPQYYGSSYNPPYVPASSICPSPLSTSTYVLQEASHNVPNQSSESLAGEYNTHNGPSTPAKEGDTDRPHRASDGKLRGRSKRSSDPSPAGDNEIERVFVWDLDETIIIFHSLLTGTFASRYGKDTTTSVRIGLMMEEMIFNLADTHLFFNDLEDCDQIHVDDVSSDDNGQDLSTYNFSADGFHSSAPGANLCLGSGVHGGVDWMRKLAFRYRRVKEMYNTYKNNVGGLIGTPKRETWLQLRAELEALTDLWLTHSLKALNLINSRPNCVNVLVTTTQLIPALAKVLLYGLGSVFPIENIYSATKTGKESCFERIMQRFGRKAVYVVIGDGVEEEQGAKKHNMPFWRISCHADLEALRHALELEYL
Target sequence (Q15475 whole entry, looked up): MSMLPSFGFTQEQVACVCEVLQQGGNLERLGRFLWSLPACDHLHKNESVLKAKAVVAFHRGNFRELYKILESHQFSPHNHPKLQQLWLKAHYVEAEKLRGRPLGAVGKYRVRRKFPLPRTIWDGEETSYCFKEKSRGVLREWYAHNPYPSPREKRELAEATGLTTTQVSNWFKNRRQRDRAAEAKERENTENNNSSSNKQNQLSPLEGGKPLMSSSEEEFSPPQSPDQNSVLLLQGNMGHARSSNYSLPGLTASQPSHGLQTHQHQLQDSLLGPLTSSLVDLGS
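Compounds are tested against tagged Six1 and Eya2 proteins bridged by glutathione donor and nickel acceptor beads; after a one-hour incubation at 37 °C without light, AlphaScreen emission is recorded.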
An asterisk follows results filed as active; ? = inconclusive; / = no result given; [ ] = another dose, or the depositor's remark.

SMILES	TRPML1 agonist	D2 ag	D2 potentiator	TRPML1 inh	PINK1 modulator	Six1-Eya2 inh
COc1ccc(Cl)cc1C(=O)C1CCCN(Cc2cnc(N3CCOCC3)s2)C1 (configuration not stated)	2.1	-2.5	-14.7	-4.5	-1.5%	-0.8
Cn1c(=O)c(C#N)c(-c2ccccc2)n2cnnc12	3.4	-0.2	-3.4	21.3	/	7.5
Cc1cccc(-n2c(C)cc(/C=C3\NC(=O)NC3=O)c2C)c1	0.2	-2.1	-3.3	-1.5	4.6%	-3.6
CC(=O)c1ccc(NC(=S)Nc2cccc(S(=O)(=O)Nc3c(C)n(C)n(-c4ccccc4)c3=O)c2)cc1	-0.8	0.9	-6.7	52.2	2.4%	2.8
Cc1ccc(NC(=O)Cn2nnc3sc(-c4ccccc4)cc3c2=O)cc1Cl	2.3	/	/	-16.7	0.7%	/
CC(OC(=O)c1cc2ccccc2cc1O)C(=O)Nc1ccc(S(N)(=O)=O)cc1 (configuration not stated)	-0.2	-3.6	-6.9	20.8	7.4%	1.2
COc1cc2oc(-c3ccc(O)cc3)cc(=O)c2c(OC)c1O	-0.1	1.2	18.1	2.3	5.0%	-13.6
Cc1ccccc1-c1nc(CS(=O)(=O)CC(=O)NC2CCCCC2C)c(C)o1 (configuration not stated)	-0.5	-3.6	-13.7	-12.8	-0.8%	-0.8
COc1ccc(NC(=O)NCCCN2CCc3ccccc3C2)cc1	0.5	3.8	-9.5	31.1	1.5%	-7.0
COc1ccccc1N1CCN(C(CNS(=O)(=O)c2cc(F)ccc2F)c2cccnc2)CC1 (configuration not stated)	-0.3	5.0	-3.5	12.7	0.1%	-2.0
CN(C)C(=O)c1ccc(NC(=O)c2ccccc2Sc2ccccc2C#N)cc1	0.7	-11.0	-18.0	-8.7	5.6%	-3.6
CC(C)CCCC(C)CCOC(=O)CN1CCCC1 (configuration not stated)	-0.3	-2.0	-7.5	7.8	4.7%	1.1
COc1ccc2cc(N=Cc3nc(-c4ccc(C)cc4)oc3O)cnc2c1	0.5	-1.0	-1.0	19.6	-0.2%	2.7
CC(=O)SC1CC(=O)N(c2ccc(C(C)(C)C)cc2)C1=O (configuration not stated)	0.4	-2.6	-21.6	8.4	1.7%	4.4
CCOc1ccc(N(CC(=O)NC2CCCCC2C)S(=O)(=O)c2c(C)noc2C)cc1 (configuration not stated)	-1.3	2.7	-1.8	-1.3	1.5%	2.1
O=C(NCC(F)(F)F)c1ccc2sc([C@H]3C[C@H](O)[C@@H](CO)O3)nc2c1	-0.4	0.6	-5.6	/	1.1%	0.4
COc1cc(-c2nnc(-c3cc(OC)c(OC)c(OC)c3)o2)cc(OC)c1OC	0.1	0.2	2.1	1.3	-0.6%	-4.9
CCOC(=O)N1CCN(C(=O)CCS(=O)(=O)c2cc3c(cc2Cl)NC(=O)CO3)CC1	0.1	1.8	-0.9	10.9	1.4%	4.7
Cc1ccccc1CSCC(=O)Nc1ccccc1Br	3.2	-3.9	0.1	4.6	1.0%	19.3
COc1ccc(/C=N/NC(=O)c2ccc(NC(=O)c3cccc([N+](=O)[O-])c3)cc2)c(OC)c1	-0.4	5.0	3.2	2.9	3.6%	-5.1

Fetched one by one from the entries so far (five):
SMILES	TRPML1 agonist	D2 ag	D2 potentiator	TRPML1 inh	PINK1 modulator	Six1-Eya2 inh
Cc1cccc(-n2c(C)cc(/C=C3\NC(=O)NC3=O)c2C)c1	0.2	-2.1	-3.3	-1.5	4.6%	-3.6
COc1ccc(NC(=O)NCCCN2CCc3ccccc3C2)cc1	0.5	3.8	-9.5	31.1	1.5%	-7.0
CC(C)CCCC(C)CCOC(=O)CN1CCCC1 (configuration not stated)	-0.3	-2.0	-7.5	7.8	4.7%	1.1
Cn1c(=O)c(C#N)c(-c2ccccc2)n2cnnc12	3.4	-0.2	-3.4	21.3	/	7.5
CCOC(=O)N1CCN(C(=O)CCS(=O)(=O)c2cc3c(cc2Cl)NC(=O)CO3)CC1	0.1	1.8	-0.9	10.9	1.4%	4.7

(listing goes on)
SMILES	TRPML1 agonist	D2 ag	D2 potentiator	TRPML1 inh	PINK1 modulator	Six1-Eya2 inh
O=[N+]([O-])c1cccc(Cl)c1NCCNc1ncc(C(F)(F)F)cc1Cl	1.0	-1.6	6.2	2.8	?	-27.9
CC1(C(=O)NS(=O)(=O)c2ccccc2)CCN1C(=O)C1CCCCC1 (configuration not stated)	0.1	-3.5	-7.7	0.9	-0.2%	-5.9
Cc1ccc(NC(=O)C(OC(=O)c2ccc(O)cc2)c2ccccc2)cc1Cl (configuration not stated)	0.7	-6.2	-6.5	-2.1	0.1%	0.3
NC(=O)c1ccc(OCC2CCCO2)cc1 (configuration not stated)	-0.2	-4.8	-5.1	2.2	1.8%	8.7
CNc1nc(Nc2ccc(Br)cc2)nc(N)c1[N+](=O)[O-]	0.4	3.4	-6.8	18.8	1.1%	2.8
CCN(CC)C(=O)c1sc2c(c1C)c(=O)n(-c1ccc(OC)cc1OC)c(=O)n2Cc1cc(C)ccc1C	3.4	/	/	34.5	0.1%	/
CCOC(=O)C1(CC2CCCCO2)CCN(C(=O)Nc2cccc(SC)c2)CC1 (configuration not stated)	0.9	-3.5	-4.3	1.0	-0.7%	-1.1
COc1ccc(OC)c(CC(NC(C)=O)C(=O)NC2CCN(C(=O)c3cccc(C)c3)CC2)c1 (configuration not stated)	0.5	-1.4	-11.4	-17.1	-0.2%	1.1
O=C(NNC(=O)c1ccc(F)c(S(=O)(=O)N2CCOCC2)c1)c1ccc([N+](=O)[O-])cc1	-0.3	-11.4	-12.1	3.7	2.4%	-24.1
CC(=O)c1ccc(S(=O)(=O)N2CCCCC2C(=O)O)cc1 (configuration not stated)	0.6	-2.9	-3.8	16.5	1.1%	12.1
O=C1C(Cl)=C(Nc2ccc(F)cc2)C(=O)N1CCc1ccccc1	2.2	1.2	-2.7	50.7	-0.8%	4.0
CCOc1cccc(NC(=O)c2ccc(F)c(S(=O)(=O)N(CC)c3cccc(C)c3)c2)c1	2.1	/	/	-12.6	0.3%	/
O=c1cc(-c2ccccc2)[nH]n1-c1nc2ccccc2[nH]1	-0.1	-1.2	-12.9	-11.8	0.1%	-81.0*
Cc1ccc(NC(=O)C(C)N2C(=O)c3ccccc3C2=O)cc1C (configuration not stated)	-1.3	3.1	-3.8	-3.7	0.1%	2.1
COc1cc(CCC(=O)OCC(=O)c2ccc[nH]2)cc(OC)c1OC	0.0	-3.0	13.1	-27.6	-1.7%	-11.9
C(/CCc1ccccc1)=N\Nc1nc2ccccc2[nH]1	4.1	1.9	-0.7	-3.1	5.4%	-12.6
O=C(/C=C/c1ccco1)N(Cc1ccccc1)C1CCS(=O)(=O)C1 (configuration not stated)	0.4	-2.7	-8.2	7.1	1.5%	2.4
O=C(O)C1CC=CCC1C(=O)Nc1ccccc1C(=O)N1CCN(c2ccc(Cl)cc2)CC1 (configuration not stated)	0.8	6.1	-1.7	14.6	0.1%	-11.4
CC(C)N1CCC1(C)C(=O)Nc1cccc(C#N)c1 (configuration not stated)	-0.5	-3.8	-19.5	/	1.9%	-2.7
CCCCC(=O)Nc1ccc(NC(=O)CC)cc1OC	0.0	0.0	-6.5	4.9	0.5%	-2.8
Cc1cccc2c1CC(C)(C)N/C2=C\C(N)=O	0.2	-2.2	-17.4	-17.0	-0.9%	0.8
CC1CCCCN1C(=O)NC1CC(=O)N(c2ccc3c(c2)OCCO3)C1 (configuration not stated)	0.3	-1.7	-2.6	4.0	0.8%	-0.9
Cc1cc(C)n(-c2ccnc3cc(Cl)ccc23)n1	-0.3	-9.9	2.6	2.8	-0.4%	5.5
CC(C)NC1=C(Cl)C(=O)c2ccccc2C1=O	1.6	3.4	19.2	23.7	-5.5%[38.3 µM]	?
CCN(CC)c1nn2c(=O)c(C(=O)NCc3ccc(F)cc3)cnc2s1	0.1	/	/	-7.5	1.5%	/
O=C(CC(=O)N/N=C\c1ccccc1)NCCc1ccccc1	0.3	6.0	-10.2	12.2	-1.0%	-2.1
COc1ccc(CN2CCN(C(=O)c3ccco3)CC2)c(OC)c1OC	1.2	46.4*	60.2*	-8.9	0.5%	3.8
O=C(CNC(=O)Cc1cccc2ccccc12)NCc1ccccc1F	-0.1	-2.2	-1.0	2.0	-2.3%	2.9
CCCN=Cc1sc2ccc(OCC)cc2c1O	0.8	-0.7	-8.0	-13.0	/	-8.6
CCOC(=O)C1CNc2cc(S(=O)(=O)CC)ccc2O1 (configuration not stated)	-0.7	-6.0	5.1	-6.8	2.0%	5.5
O=C(NCC1CCCO1)c1ccc(CS(=O)(=O)Cc2ccc(F)cc2)o1 (configuration not stated)	-0.3	-2.8	-19.1	14.6	3.0%	10.5
C#CCNC(=O)C1=C[C@@H](c2ccccc2)C[C@@H](OCc2ccc(CO)cc2)O1	-0.7	-4.2	-11.1	-0.6	-0.9%	7.0
N#Cc1ccccc1OCC(=O)Nc1ccccc1C(=O)NC1CC1	-0.6	-0.2	-6.3	-5.5	2.4%	-3.2
CCCS(=O)(=O)NCCc1cc2ccc(C)cc2[nH]c1=O	-0.4	2.2	-1.7	2.7	-2.8%[38.3 µM]	-4.5
COc1ccccc1NC(=O)N1CCCC(CNC(=O)c2ccccc2Cl)C1 (configuration not stated)	-0.1	-5.1	-2.2	-9.9	-0.6%	2.5
CC(C)CN(C(=O)C1CC1)C1CCS(=O)(=O)C1 (configuration not stated)	-0.8	-3.9	9.8	23.4	1.4%	2.7
O=C(CSc1cn(CCNC(=O)c2ccc3ccccc3c2)c2ccccc12)NCc1ccco1	-0.1	0.7	-3.6	-13.2	0.4%	-18.4
COc1ccc(N(CC(=O)N2CCN(c3ccccc3)CC2)S(=O)(=O)c2c(C)nn(C)c2C)cc1	-0.9	/	/	-8.5	0.3%	/
Cc1onc(-c2ccccc2)c1C(=O)NN1CCOCC1	0.2	1.4	-9.0	-1.6	1.4%	8.5
O=C(O)c1cc(S(=O)(=O)NCC2COc3ccccc3O2)ccc1Cl (configuration not stated)	0.0	0.0	-2.6	-5.5	2.1%	-0.1
O=C(Nc1cccn2nc(COCCO)nc12)C(c1ccccc1)c1ccccc1	-0.9	-2.7	2.6	/	2.4%	6.8
Cc1ccc(S(=O)(=O)N2C[C@H]3[C@H]4C(=O)N(C5CCCCC5)C(=O)[C@H]4CC(=O)[C@H]3[C@@H]2c2ccccc2F)cc1	22.6	-6.5	-6.0	/	-0.9%	8.7

Not a hit list, and some 1% of all compounds hit somewhere here.
